Assay outcomes as filed in PubChem BioAssay.
V. cholerae motility – Vibrio cholerae motility inhibitors, OD read-out (AID 588778) | 10,000 tested, under 10 active | Vibrio cholerae motility, OD read-out; higher % means a stronger effect; test concentration not given here; primary cut-off and reference of the scale not given here; strong numbers were not always called active | inhibition, %, or IC50 in µg/mL where a hit was titrated; in the data active = confirmed in a dose series
V. cholerae motility viability – recorded beside V. cholerae motility, whose call it bears; inhibition, %; measured here: bacterial viability at 10 ug/mL;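 higher means fewer living bacteria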
Numbers without * were called inactive. Not all compounds are listed; rates above refer to the full screens.

SMILES	V. cholerae motility	V. cholerae motility viability
COc1ccccc1NS(=O)(=O)c1cc(N)ccc1N1CCCCC1	8%	4
COc1c(Cl)cc(C(=O)N2CCN(Cc3ccccc3)CC2)cc1Cl	24%	4
CCn1cc(-c2n[nH]c(=S)n2C)c2ccccc21	-20%	-6
O=C(CCCOc1ccc(Cl)cc1Cl)NNC(=O)CNC(=O)C1CCCCC1	13%	24
Cc1cc(C(=O)O/N=C(\N)c2cccnc2)ccc1[N+](=O)[O-]	-6%	-3
c1ccc(CN(Cc2ccccc2)C2C3CCCCC32)cc1 (stereo unspecified)	-19%	-2
CC(=O)c1cc2c(cc1NC(=O)Nc1cccc(Cl)c1)OCCO2	-11%	0
S=C(Nc1ccccc1)Nc1ccc(N2CCOCC2)cc1	11%	38
CC(C)Oc1ccc(-c2cc(C(=O)O)c3ccccc3n2)cc1	7%	3
CCOC(=O)c1cnc2cc(-c3cccc(C)c3)[nH]n2c1=O	8%	-2
Cc1ccccc1-c1cc(C(=O)NC2=NCCS2)c2cc(Cl)ccc2n1	-2%	-2
O=C(Nc1ccccc1-c1nc2ccccc2s1)c1ccc(N2CCCCC2)c([N+](=O)[O-])c1	-13%	-4
CCC(C(=O)Nc1c[nH]c(=O)[nH]c1=O)c1ccccc1 (stereo unspecified)	16%	4
C=CCN(CC=C)C(=O)c1ccc2snnc2c1	14%	1
Cc1cc(NC(=O)c2nc3ncccn3n2)no1	-3%	-3
C(=C\c1ccccc1)/CN1CCN(CCCc2ccccc2)CC1	7%	0
C=CCNC(=S)N1CCN(c2nc(C(C)C)c3c(c2C#N)CC(C)(C)OC3)CC1	-5%	-7
O=C1N/C(=C\c2ccccc2)c2ccccc21	-40%	-11
COc1ccc(NC(=O)CSc2nccc(=O)[nH]2)cc1Cl	9%	0
O=C(Nc1nnc(C(F)(F)F)s1)C(Sc1ccccc1)c1ccccc1 (stereo unspecified)	-10%	-5
CCOC(=O)c1ccc(NC(=S)NC(C)c2cn(C)nc2C)cc1 (stereo unspecified)	-1%	-5
Cc1nn(CC(=O)Nc2ccc(OC(F)(F)F)cc2)c(C)c1[N+](=O)[O-]	-11%	-5
CCOC(=O)C(Oc1ccc2c(oc(=O)c3cc(OC)ccc32)c1C)c1ccccc1 (stereo unspecified)	-1%	-2
COCCNC(=O)CNS(=O)(=O)c1c(C)c(C)cc(C)c1C	-5%	1
O=C(Oc1ccc([N+](=O)[O-])cc1)c1cc(=O)c2ccccc2o1	-14%	-5
(list continues)
SMILES	V. cholerae motility	V. cholerae motility viability
O=C(Cc1cccc2ccccc12)NC(=S)Nc1cccc(Cl)c1Cl	-7%	-17
O=C(CCCOc1ccc(Cl)cc1Cl)NC(=S)Nc1ccccc1Br	-12%	-9
COc1ccc(Cl)cc1NC(=O)CCNC(=O)OCc1ccccc1	18%	33
COC(=O)c1cccc(NC(=O)/C(=C\c2ccc(F)cc2)NC(=O)c2ccco2)c1	13%	0
CC1(C)CC(C(=O)Nc2nccs2)CCO1 (stereo unspecified)	-12%	0
O=S1(=O)C=C(SCCN2CCOCC2)c2ccccc21	12%	-2
COc1cc(-c2ccc(C)cc2)nc2oc(OCC(C)=O)nc12	-12%	-7
COc1ccccc1Nc1nc(N)c2ccccc2n1	46%	9
CS(=O)(=O)c1ccc2nc(NS(=O)(=O)Cc3ccccc3)sc2c1	-7%	-8
Cc1nnc2c3ccccc3nc(-c3ccc(Br)cc3)n12	5%	-7
COc1cccc(/C=C(\C#N)c2ccccc2)c1OC(C)C	23%	-2
Cc1cc(C)n(-c2nncc(-c3ccccc3)n2)n1	-6%	-12
O=C(NNC(=O)C(F)(F)C(F)(F)C(F)(F)F)c1cccs1	-8%	-1
CC(C)N(C(=O)Cn1ccnc1)c1ccccc1	-10%	5
CC(=O)Nc1ccc(-c2nn[nH]n2)cc1	-11%	0
CC(=O)c1cccc(NC(=O)NC2CCN(Cc3ccccc3)CC2)c1	8%	-2
COc1cc(C)nc(NC(=O)Nc2sc(NS(=O)(=O)c3ccc(C)cc3)nc2C)n1	-8%	0
COC(=O)c1cc(NS(=O)(=O)c2ccc(N3CCCC3)c([N+](=O)[O-])c2)cc(C(=O)OC)c1	-2%	-3
C/C(=N/N1CCN(Cc2ccc(Cl)cc2)CC1)c1cccc([N+](=O)[O-])c1	8%	7
CNC(=S)Nc1cnn(Cc2cccc3ccccc23)c1	19%	10
CCOC(=O)N1CCN(C(=O)c2ccc(C#CC3(O)CCCCC3)cc2)CC1	-17%	-6
CN(C)S(=O)(=O)Nc1ccc(Cc2ccncc2)cc1	19%	0
CC(C)CC(C(=O)Nc1nc(-c2ccccc2)cs1)N1C(=O)c2ccccc2C1=O (stereo unspecified)	11%	-5
COc1ccc(Cl)cc1N(CC(=O)Nc1ccccc1C(=O)NCc1ccco1)S(C)(=O)=O	17%	9
O=C(Nc1nc2ccc(F)cc2s1)c1ccc([N+](=O)[O-])o1	29%	4
New compounds follow.
SMILES	V. cholerae motility	V. cholerae motility viability
CC(C)(C)c1cc(C(=S)N2CCN(c3ccc(F)cc3)CC2)cc(C(C)(C)C)c1O	-7%	-5
OCc1ccc(OCc2cccc3ccccc23)c(Br)c1	-2%	-2
CS(=O)(=O)NCCC1=CCCCC1	6%	2
O=C(CN1CCOCC1)C12CC3CC(CC(C3)C1)C2	24%	0
Cc1nn(Cc2ccc(C(=O)Nc3ccccc3C(F)(F)F)o2)c(C)c1Br	0%	3
CON(C)C(=O)Nc1ccc(Cl)cc1	-16%	5
c1ccc(-c2cc(-c3ccccn3)nnc2-c2ccccn2)cc1	0%	4
N#CCN(CC#N)C(=O)c1cccc(F)c1	8%	-6
Cc1cc(C(F)(F)F)nc(SCC(=O)NC2=NC(=O)C(C)S2)n1 (stereo unspecified)	16%	7
CCOc1ccc(C(=O)c2cccs2)cc1	9%	3
O=Cc1nc(-c2ccccc2Cl)n2ccccc12	7%	2
Cc1ccc(SCCCn2cncn2)cc1	2%	7
O=C(Cc1cccs1)Nc1ccc(NC(=O)c2cccs2)cc1	-10%	-14
Cc1ccc(N2C(=O)CC(Sc3ccccc3C(=O)N3CCOCC3)C2=O)cc1 (stereo unspecified)	-2%	-3
CCN(CC)c1ccc(CNC(C)C(O)c2ccccc2)cc1 (stereo unspecified)	20%	6
COc1ccc(C2=NCCc3cc(OC)c(OC)cc32)cc1OC	3%	0
COc1ccc(-c2cc(C(F)(F)F)c3c(N)c(C#N)sc3n2)c(OC)c1	2%	0
Cc1ccc(S(=O)(=O)Nc2cccc(-c3csc(C)n3)c2)c(C)c1	-3%	0
O=C(CSc1nnc2sc3ccccc3n12)N1N=CCC1c1ccccc1 (stereo unspecified)	17%	-4
CC(C)Cn1cnc2sc3c(c2c1=N)CCCC3	61%	21
O=C1c2ccccc2C(=O)N1CCSc1ncnc2sc(-c3ccccc3)cc12	6%	-2
CC(Sc1ccc(Cl)cc1)C(=O)Nc1ccccc1C(=O)NC(C)c1ccccc1 (stereo unspecified)	-13%	-4
O=C(Oc1cccc(NC2=NS(=O)(=O)c3ccccc32)c1)C1CC(=O)N(c2ccc(Cl)cc2)C1 (stereo unspecified)	4%	-5
COc1ccc2c(c1)c(=O)oc1c(C)c(OCC(=O)Nc3c(C)cccc3C)ccc12	-4%	-4
Cc1cc(C)c2ccc(C)[n+]([O-])c2c1O	9%	4

Complete entries as entered above. Values in the order: V. cholerae motility	V. cholerae motility viability
Cc1nn(Cc2ccc(C(=O)Nc3ccccc3C(F)(F)F)o2)c(C)c1Br is listed as 0%	3
Cc1ccc(S(=O)(=O)Nc2cccc(-c3csc(C)n3)c2)c(C)c1 is listed as -3%	0
CC(Sc1ccc(Cl)cc1)C(=O)Nc1ccccc1C(=O)NC(C)c1ccccc1 (stereo unspecified) is listed as -13%	-4

The list goes on.
SMILES	V. cholerae motility	V. cholerae motility viability
O=C(c1ccccc1)c1ccc(CN2C(=O)c3ccccc3C2=O)o1	21%	16
O=S(=O)(c1ccccc1)c1nc(-c2cccs2)oc1N1CCOCC1	1%	0
O=C(O)C1(NS(=O)(=O)c2ccc(F)c(Cl)c2)CCCCC1	2%	-6
CCN(CC)C(=O)COc1nc2c(C(F)(F)F)c3c(nc2o1)CCC3	5%	-4
O=C(NCC1(c2ccccc2)CCCC1)C(=O)Nc1nncs1	-15%	-6
CCn1ncc(CN2CCN(C(=S)Nc3ccc(Br)cc3Cl)CC2)c1C	13%	6
O=Cc1ccc(OC(=O)c2ccccc2F)c(Cl)c1	21%	34
COc1ccccc1CC(=O)NCc1ccc(F)cc1	12%	2
COc1ccc(C2OC(=O)C(C)(C)C(=O)C2C)cc1OC (stereo unspecified)	25%	-8
O=C(Nc1ccc(S(=O)(=O)N2CCOCC2)cc1)c1ccccn1	-19%	-4
CC(=O)Nc1c(C)ccc(S(N)(=O)=O)c1C	10%	27
CC(=O)CN(C)S(=O)(=O)c1ccc(C)cc1	-4%	-4
N#Cc1ccccc1OCc1ccccc1F	21%	-1
Brc1cccc(-c2nnc(SCc3nnc(-c4ccccc4)o3)o2)c1	7%	-3
O=c1oc2ccccc2n1Cc1c(F)cccc1Cl	13%	-4
N#Cc1c(N)sc2c1C1CCN2CC1	0%	0
CC(=O)c1c(-c2ccccc2)nc2n(C)c3ccccc3n12	-2%	0
CC(=O)Nc1ccc(NS(C)(=O)=O)cc1	11%	0
COc1ccc(C(=O)NC(=S)NC(C)(C)C)cc1Br	4%	-2
COc1ccc(S(=O)(=O)Nc2ccccc2C(=O)N2CCCC2)c(Cl)c1Cl	2%	0
CC1(C)Cc2c(c(N3CCOCC3)nc3sc4c(ncn5c(=S)[nH]nc45)c23)CO1	-20%	-8
O=C1c2ccccc2C(=O)N1CCc1nc(-c2ccccc2)cs1	4%	-2
Cc1ccc2c(c1)c1c3n2CCN(S(C)(=O)=O)C3CCC1 (stereo unspecified)	5%	-1
O=C(/C=C/Nc1ccccc1C(F)(F)F)c1ccc(Br)cc1	1%	4
CCOC(=O)c1ccc(NC(=O)C2CCN(C(=O)c3ccc(Cl)cc3Cl)CC2)cc1	15%	7

An excerpt from above in order of SMILES length, lowest first.
SMILES	V. cholerae motility	V. cholerae motility viability
O=C(/C=C/Nc1ccccc1C(F)(F)F)c1ccc(Br)cc1	1%	4
CCN(CC)C(=O)COc1nc2c(C(F)(F)F)c3c(nc2o1)CCC3	5%	-4
CCOC(=O)c1ccc(NC(=O)C2CCN(C(=O)c3ccc(Cl)cc3Cl)CC2)cc1	15%	7

The listing continues:
SMILES	V. cholerae motility	V. cholerae motility viability
N#Cc1cccc(Oc2ccc(Br)cc2)c1C#N	-35%	-11
Cc1cccc(C(C)C)c1NC(=O)C(Cl)(Cl)Cl	5%	0
N#C/C(=C/c1ccc(Cl)cc1Cl)c1ccc(C#N)cc1	9%	-3
NC(=O)c1ccccc1OCC(=O)Nc1cccc(I)c1	5%	-9
O=C(Cc1ccccc1)Nc1cccc(S(=O)(=O)c2cccc(NC(=O)Cc3ccccc3)c2)c1	-6%	-8
O=C(NC1=NCCS1)Nc1ccc(Cl)cc1	24%	8
C=CCNS(=O)(=O)c1cc(Cl)ccc1Cl	1%	-2
O=C(CSc1nc2cc(Cl)ccc2s1)OCc1ccccc1	0%	0
Cc1c(Br)cc(C(=O)O)c(C)c1C	3%	-7
Cc1cn(C(=O)CN2C(=O)c3ccccc3C2=O)c(C)n1	0%	9
O=C1CC(c2ccco2)CC2=C1C(c1cccnc1)n1ncnc1N2 (stereo unspecified)	3%	-3
CC(Oc1ccc(Cl)cc1Cl)C(=O)Nc1ccc(N2CCN(S(C)(=O)=O)CC2)cc1 (stereo unspecified)	-2%	-6
CC(=O)Oc1c([N+](=O)[O-])cc2c(c1C)CCCC2	17%	5
O=C(O)C1C2C=CC(O2)C1C(=O)Nc1nc(-c2ccc(F)cc2)cs1 (stereo unspecified)	0%	-1
CS(=O)(=O)N(CCc1ccccc1)CC(=O)NCC1CCCO1 (stereo unspecified)	8%	2
CCOC(=O)N1CCN(C(=O)COc2ccc(Br)cc2C)CC1	19%	30
COc1ccc(O)c(-c2cc(-c3ccccc3[N+](=O)[O-])[nH]n2)c1	29%	12
COc1ccc(C2(C(N)=O)CCCC2)cc1	-5%	-6
CSc1cccc(NC(=O)CNC(=O)c2ccc(-n3cnnc3)cc2)c1	7%	-1
O=C(CC12CC3CC(CC(C3)C1)C2)n1cccn1	7%	-1
CCOc1ccccc1CC1C(=O)N(C)C(=O)N(C)C1=O	4%	0
O=C(Nc1nnc(C2CC2)s1)c1cc2c(s1)CCCCCC2	20%	33
O=C(NNC(=S)Nc1ccc(Br)cc1Cl)c1ccco1	22%	-10
CC1CC(OCC(O)CN2CCN(c3ccccn3)CC2)CC(C)(C)C1 (stereo unspecified)	14%	4
FC(F)(F)C1CC(c2cccs2)Nc2ncnn21 (stereo unspecified)	-6%	-1
(further entries)
SMILES	V. cholerae motility	V. cholerae motility viability
O=C(c1cc2sc3ccccc3c2s1)N1CCCCCC1	-1%	1
CN(C)c1nc(N)nc(-c2nc3ccccc3s2)n1	-11%	-8
Clc1cc(Cl)c(OCCCN2CCNCC2)c(Cl)c1	-1%	-3
O=C(CCCc1nc(-c2ccccc2Cl)no1)NCc1ccco1	10%	1
CCC(C)c1ccc(NC(=S)Nc2cc(OCC(F)(F)C(F)F)cc([N+](=O)[O-])c2)cc1 (stereo unspecified)	30%	4
COc1ccc(N2C(=O)CC(n3c(CCCCO)nc4ccccc43)C2=O)cc1 (stereo unspecified)	3%	-2
O=Cc1cc(Br)ccc1OC(=O)Cc1ccc(F)cc1	4%	7
Cc1cc(C)nc(Nc2nc3ccccc3[nH]2)n1	-5%	-7

Five records picked at random from the list so far, as already listed:
SMILES	V. cholerae motility	V. cholerae motility viability
O=C(CSc1nc2cc(Cl)ccc2s1)OCc1ccccc1	0%	0
CCC(C)c1ccc(NC(=S)Nc2cc(OCC(F)(F)C(F)F)cc([N+](=O)[O-])c2)cc1 (stereo unspecified)	30%	4
CCOc1ccccc1CC1C(=O)N(C)C(=O)N(C)C1=O	4%	0
O=C(Nc1nnc(C2CC2)s1)c1cc2c(s1)CCCCCC2	20%	33
COC(=O)c1cc(NS(=O)(=O)c2ccc(N3CCCC3)c([N+](=O)[O-])c2)cc(C(=O)OC)c1	-2%	-3
